PINK1 expr mod: changes PINK1 expression | PINK1 immunofluorescence, high-content cytometry, 24 h | Potency, µM (doses to about 76.6 µM), for inactives: at the highest dose activation (PINK1 increase), usual class: activators | 410,000 tested, 0.2% active | AID 624263; active = well fitted activation curve with a large enough effect; inconclusive = small, poorly fitted or top-dose-only effect; inactive = flat fitted curve, though single readings scatter; cell line not stated here;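 also: potency is read from the fitted curve at half-maximal effect; % of control where 0% means no effect; nearly all actives have a fitted effect of over 65% in size; a mitochondrial uncoupler was the plate control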
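A stable cell line was treated with compounds at 5 concentrations for 24 hours, with CCCP as control. PINK1 levels and mitochondrial localization were measured by immunofluorescence with mitochondrial, cell and nuclear markers after fixation, read by laser-scanning cytometry.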
Six1-Eya2 blk: inhibitors of human Six1/Eya2 interaction. Q15475+O00167. AlphaScreen GST-Six1/His-Eya2 binding, biochemical; stronger effect = lower value; control for the full effect not named in the record. activity change, % (concentration not given with the values). 360,000 tested, 0.56% active. AID 651725; in the data active = activity change below about -65%; inconclusive = about -30% to -65%; inactive = above about -30%; also: % is scaled to controls: 0 for no effect and ±100 for the full control effect
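Six1/Eya2 binding was read as AlphaScreen signal after compounds were pinned into GST-Six1 plus His-tagged Eya2 (5X stock 250/500 nM) in pH 8.0 Tris/NaCl/TCEP buffer, beads added, then incubated 1 h, 37 C, dark.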
TRPML1 blocker: blocks the human TRPML1 channel; activity change, negative = inhibition, % (test concentration not listed); TRPML1-inducible cells, Ca2+ dye fluorescence, FDSS; stronger effect = lower value; inhibition of EC80 agonist-evoked calcium signal; AID 624415; 390,000 tested, 0.02% active; in the data active means activity change below about -50%; inconclusive means about -30% to -50%; inactive means above about -30%;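 also: stimulus is agonist 54-4 at its EC80 concentration; % is scaled to controls: 0 for no effect and ±100 for the full control effect; compound concentration not given in the record; the text of the record puts the active cut at -80%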
Target sequence (Q9GZU1 whole entry, looked up): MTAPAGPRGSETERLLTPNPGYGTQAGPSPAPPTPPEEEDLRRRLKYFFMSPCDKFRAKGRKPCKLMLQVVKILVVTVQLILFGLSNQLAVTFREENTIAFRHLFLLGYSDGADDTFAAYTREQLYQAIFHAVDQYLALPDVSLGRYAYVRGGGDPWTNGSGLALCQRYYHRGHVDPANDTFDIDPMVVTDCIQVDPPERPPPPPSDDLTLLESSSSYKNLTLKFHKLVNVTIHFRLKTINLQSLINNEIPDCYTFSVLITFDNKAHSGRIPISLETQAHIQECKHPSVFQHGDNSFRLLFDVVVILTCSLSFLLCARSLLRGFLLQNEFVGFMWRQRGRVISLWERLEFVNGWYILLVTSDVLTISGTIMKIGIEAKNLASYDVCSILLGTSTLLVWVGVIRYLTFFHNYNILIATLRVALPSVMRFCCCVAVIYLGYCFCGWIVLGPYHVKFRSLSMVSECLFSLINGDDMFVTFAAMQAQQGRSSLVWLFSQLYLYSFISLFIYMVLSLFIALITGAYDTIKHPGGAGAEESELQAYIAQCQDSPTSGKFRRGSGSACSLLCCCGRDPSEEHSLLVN
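Calcium fluorescence in TRPML1-DL cells induced overnight with Tet: a 110 s read after compound pin addition, then a 110 s antagonist read after challenge with 54-4 at 4 uM final (EC80).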
D2 PAM: potentiates the human D2 dopamine receptor allosterically; AID 624464; DiscoveRx D2 beta-arrestin cells, luminescence, 90 min; 100% = 57 uM dopamine signal; potentiation, % (test concentration not listed); 360,000 tested, 0.23% active; active = potentiation of 50% or more; inconclusive = 30% to 50%; inactive = 30% or less;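 also: compound concentration not given in the record; tested on top of an EC20 dose of dopamine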
Target sequence (P14416 whole entry, looked up): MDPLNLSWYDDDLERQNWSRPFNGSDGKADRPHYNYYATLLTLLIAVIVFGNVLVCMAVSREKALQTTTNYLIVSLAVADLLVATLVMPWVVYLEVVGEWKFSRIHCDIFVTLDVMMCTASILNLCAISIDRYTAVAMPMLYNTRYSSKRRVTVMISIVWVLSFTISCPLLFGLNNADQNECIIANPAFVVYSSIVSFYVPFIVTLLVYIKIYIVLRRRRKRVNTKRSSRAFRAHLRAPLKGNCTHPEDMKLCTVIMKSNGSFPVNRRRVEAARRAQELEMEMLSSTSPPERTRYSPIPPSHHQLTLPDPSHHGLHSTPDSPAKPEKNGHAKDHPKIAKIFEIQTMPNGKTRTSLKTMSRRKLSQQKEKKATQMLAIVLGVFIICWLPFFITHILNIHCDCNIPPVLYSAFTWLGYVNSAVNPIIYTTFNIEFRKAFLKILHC
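PathHunter beta-arrestin assay in DiscoveRx D2 cells. Compounds were added with an EC20 of dopamine (50 nM final) for 90 min at 37 deg C. Luminescence was read 1 h after detection reagent, with 57 uM dopamine as the EC100 control.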
TRPML1 agonist: activates the human TRPML1 channel; Q9GZU1; TRPML1-expressing cells, Ca2+ dye fluorescence, FDSS; host cell line not named in the record; reference of the full effect not given here; activation, % (concentration not given with the values); 410,000 tested, 0.12% active; in the data active = activation above about 50%; inconclusive = about 30% to 50%; inactive = below about 30%; also: 0% is about no effect; the text of the record puts the active cut at 80%
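Tet-induced TRPML1-DL cells, 1,500 per well, cultured overnight, were loaded with a no-wash Ca2+ dye for 45–90 min. Calcium fluorescence was recorded on the FDSS for 110 s after compound addition, before the EC80 agonist (4 uM 54-4) was added.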
D2 ag: activates the human D2 dopamine receptor; DiscoveRx PathHunter D2 beta-arrestin, luminescence, 90 min; 100% = 57 uM dopamine signal; activation, % (test concentration not listed); 360,000 tested, 0.084% active; in the data active = activation above about 40%; inconclusive = about 15% to 40%; inactive = below about 15%; also: compound concentration not given in the record; the text of the record calls up to 30% inactive
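Agonist mode: compounds alone added to overnight-plated D2 PathHunter cells for 90 min at 37 C, with 57 uM final dopamine (EC100) defining full response. Beta-arrestin recruitment detected by chemiluminescent reagent, read after 1 h at ambient temperature.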
The depositor's hits bear a star; ? = inconclusive; . = no result given; & = joins results of further samples; [ ] = remark or other dose.

SMILES	PINK1 expr mod	Six1-Eya2 blk	TRPML1 blocker	D2 PAM	TRPML1 agonist	D2 ag
CCOC(=O)/C(=C/c1ccccc1)NC(=O)c1ccco1	-1.6%	8.9	6.0	2.3	1.0	-0.1
C=CCn1c(SCC(=O)Nc2cccc(S(N)(=O)=O)c2)nnc1C1CCCCC1	-0.8%	4.1	-0.3	-4.4	-0.5	-0.2
N#CC1(NC(=O)CSc2n[nH]c(-c3ccccc3)n2)CCCCC1	-1.1%	5.6	9.0	-4.0	0.6	-2.7
Cc1nc2ccc(NC(=O)c3ccc(F)c(S(=O)(=O)N4CCOCC4)c3)cc2s1	0.9%	-23.2	16.2	2.2	-1.3	2.8
CC(C)C[C@@H](CN(C)N=O)N(C[C@H](Cc1ccccc1)N(CCc1ccccc1)N=O)N=O	-0.4%	-8.9	4.0	-7.9	0.5	-1.4
CC(C)c1ccc(N2C(=O)N(Cc3cccc([N+](=O)[O-])c3)c3ccccc3S2(=O)=O)cc1	1.0%	.	-3.4	.	-0.1	.
CC1(C(=O)NCc2cccc3ccccc23)CCN1Cc1cc2ccccc2o1 (configuration not stated)	3.0%	-2.0	.	-12.7	-0.6	-5.0
C/C(=N\NC(=O)COc1cc(C)cc(C)c1)c1cccc(NC(=O)C2CCC2)c1	0.6%	4.1	-8.4	6.7	2.9	4.4
CCOc1ccccc1N1Cc2cc(C)c(C)cc2C1	?	-12.4	5.1	-3.4	-0.9	-3.9
Cn1cccc1CNC1CCCC1	-1.6%	-12.2	4.1	-18.0	-0.8	-3.7

Complete entries, quoted from the list.
CCOC(=O)/C(=C/c1ccccc1)NC(=O)c1ccco1 is entered as PINK1 expr mod = -1.6%; Six1-Eya2 blk = 8.9; TRPML1 blocker = 6.0; D2 PAM = 2.3; TRPML1 agonist = 1.0; D2 ag = -0.1
Cn1cccc1CNC1CCCC1 is entered as PINK1 expr mod = -1.6%; Six1-Eya2 blk = -12.2; TRPML1 blocker = 4.1; D2 PAM = -18.0; TRPML1 agonist = -0.8; D2 ag = -3.7

Continuation:
SMILES	PINK1 expr mod	Six1-Eya2 blk	TRPML1 blocker	D2 PAM	TRPML1 agonist	D2 ag
COc1cccc(C(=O)OCC(=O)Nc2cc(C)on2)c1OC	3.6%	-0.8	-6.1	-34.1	-0.5	0.3
COc1cccc(CN2CCN(S(=O)(=O)c3ccccc3)CC2)c1OC	-1.3%	-7.7	-21.0	-5.3	2.6	-3.7
COc1ccc(-c2csc(Nc3ccccc3)[n+]2CC(O)c2ccc([N+](=O)[O-])cc2)cc1 (configuration not stated)	3.5%	-3.9	-9.9	1.2	-0.5	0.4
COc1ccc(NCc2cc3cc4c(cc3n(CC(=O)Nc3ccccc3)c2=O)OCO4)cc1	1.6%	.	25.6	.	10.5	.
O=C1c2ccccc2C(=O)c2c(NCc3cccnc3)cccc21	1.5%	?	16.8	-5.3	-0.3	-3.2
COc1ccc(NC(=O)CCCc2nnc3n(CCC(C)C)c(=O)c4sccc4n23)c(OC)c1	-0.1%	.	-2.7	.	-0.9	.
COc1ccc(NC(=O)Nc2ccc3c(c2)N(C)C(=O)CS3)cc1Cl	11.2%	0.6	16.3	-7.5	0.9	-1.9
CC(C)CN(C(=O)CCNC(=O)c1ccc(Cl)cc1)c1c(N)n(CC(C)C)c(=O)[nH]c1=O	0.9%	2.2	4.6	-2.6	0.6	2.0
Cn1cc(/C=C2\SC(=O)N(c3ccc(O)cc3)C2=O)c2ccccc21	6.4%	0.4	66.7	6.2	2.4	14.6
Cn1c(SCC(=O)NC2CCCC2)nnc1-c1ccccn1	-0.9%	0.9	-12.7	-5.2	-0.1	1.8
COc1ccc(OCCC(=O)OCC(=O)Nc2cccc(S(=O)(=O)N3CCCCC3)c2)cc1	3.8%	-2.2	-4.7	1.2	-0.5	2.9
CC1(C)CC2CC(C)(CN2C(=O)c2cc(-c3ccc(F)cc3)on2)C1 (configuration not stated)	24.8%	3.8	21.9	-1.0	0.4	2.0
CCOc1cc(S(=O)(=O)N2CCCC2)ccc1Cl	1.3%[38.3 µM]	3.3	2.5	-3.7	-0.4	-1.8
c1ccc(C2=NC(c3ccccc3)N=C(c3ccccc3)N2)cc1	-2.3%	9.6	16.5	-11.8	0.7	2.1
CCCCN(C(=O)c1ccc2c(c1)OCO2)c1ccccc1	3.6%	11.5	-12.7	-2.7	1.2	-3.4
CCOc1ccc(NC(=O)C2CCN(C(=O)NC3CCCCC3)CC2)cc1	3.0%	0.8	25.8	1.4	0.1	-1.5
CCC(C(=O)NC1CCCC1)N(C(=O)Cn1nnc(-c2ccc(OC)c(OC)c2)n1)C1CCCCC1 (configuration not stated)	5.6%[38.3 µM]	-0.2	-1.1	-5.5	-0.4	-1.9
Cn1c(=O)c([N+](=O)[O-])c(N2CCSCC2)c2ccccc21	1.2%	-27.3	-4.4	-6.9	-0.3	-3.5
O=C(CN1CC[n+]2c(-c3cccs3)csc21)c1ccc(-c2ccccc2)cc1	15.8µM*	-18.8	20.4	-23.6	-1.1	2.6
Cc1ccc(C(=O)c2ccccc2C(=O)OCC(=O)Nc2ccc(SC(F)F)cc2)cc1	3.0%	-1.5	-3.8	5.5	0.1	-3.8
Cc1ccc(C)c(-n2sc3ccc(F)cc3c2=O)c1	-0.2%	-7.6	-5.2	-26.2	0.2	-7.7
COc1nc(-c2ccccc2)ccc1-c1noc(-c2ccccc2F)n1	8.2%	5.6	-8.2	-18.2	-0.1	-8.5
O=C(/C=C/c1ccc(Br)o1)OCc1ccccc1	2.5%	34.0	-16.8	-8.0	0.8	-2.0
COc1ccc(C2/C=C\CN(S(=O)(=O)c3ccc4ccccc4c3)CC(=O)N2Cc2ccc(F)cc2)cc1 (configuration not stated)	0.2%	-1.5	76.4&1.9	-2.2	2.3&-1.0	0.9
CCOC(=O)C(C)Sc1nc2c(cnn2-c2ccc(C)cc2)c(=O)[nH]1 (configuration not stated)	-1.0%	-1.8	5.3	-10.9	5.0	-1.5
CC(OC(=O)CNC(=O)c1ccccc1F)C(=O)Nc1nc(-c2ccccc2)cs1 (configuration not stated)	1.5%	-7.3	13.5	8.5	1.0	-5.4
COc1ccc(/C=N\NC(=O)c2ccccc2[N+](=O)[O-])cc1COc1c(F)c(F)c(F)c(F)c1F	1.2%	-10.7	-5.6	-5.0	0.1	-2.9
Cc1ccc([C@@H]2CC=C(C(=O)O)[C@H](c3ccccc3)N2S(=O)(=O)c2ccccc2C)cc1	-0.5%	-2.8	-1.7	.	-0.2	-2.8
COc1ccc(N(CC(=O)N2CCCCCC2)S(C)(=O)=O)cc1Cl	-1.0%	3.3	13.1	0.9	0.2	-5.6
COc1cccc(NC(=O)C(=O)NCCC2CCCCN2S(=O)(=O)c2ccccc2)c1 (configuration not stated)	-0.5%	1.3	23.6	1.0	0.0	0.7
N#C/C(=C1/CCCCCN1)c1nc2ccccc2s1	-1.2%[38.3 µM]	-3.9	12.5	-15.3	1.9	-1.3
CSc1nnc2c(n1)OC(c1cccn1C)N(C(C)=O)c1ccccc1-2 (configuration not stated)	0.9%	-1.7	9.1	7.8	-0.3	-3.6
N/C(Cc1ccc([N+](=O)[O-])cc1)=N\OC(=O)COc1ccc2ccccc2c1	.	-0.7	-3.2	8.3	-0.1	0.1
COCCc1nnc(NC(=O)C(C)C)s1	-1.3%	10.0	-8.2	-0.7	0.1	-0.5
Brc1ccc(N/N=C(/N=Nc2nn[nH]n2)c2ccccc2)cc1	0.5%	?	12.0	1.3	3.7	2.6
O=C1C2C(C(=O)N1c1ccncc1)C1C=CC2C12CC2 (configuration not stated)	3.1%	2.2	0.9	-18.3	-0.5	-3.7
Cc1cc(=O)n2[nH]c(SCc3ccccc3Cl)nc2n1	2.5%	5.0	1.0	7.7	0.5	1.4
O=C(CCc1ccccc1)Nc1nnc(-c2cccs2)o1	1.8%	-19.3	-12.3	-7.0	-0.9	-1.8
O=C(NNc1nc2c(F)cc(F)cc2s1)C1=COCCO1	0.6%	-4.5	20.2	-0.8	-0.3	0.2
Cc1nc(-c2ccc(S(=O)(=O)Nc3ccccc3C)cc2)co1	-1.1%	1.3	-13.0	-11.4	-1.6	-4.7
C=CCN1C(=O)C2C(C(=O)NC3CCCC3)C3(C)C=CC2(O3)C1C(=O)NC1CCCC1 (configuration not stated)	0.3%	7.2	2.4	-9.2	-1.0	7.4
Oc1ccc2nnc3c(Br)cnn3c2c1	-0.9%	-14.3	0.0	11.6	86.7*	?
Cc1cc(C)cc(NC(=O)N2CCC(C(N)=O)(N3CCCCC3)CC2)c1	3.2%	.	-10.7	.	0.7	.
COc1ccc(NC(=O)c2cccnc2N2CCCCC2)cc1	-0.9%	8.1	20.5	-4.2	1.1	-0.8
CCn1cc(/C=C(\NC(=O)c2ccccc2Cl)C(=O)NCCN2CCOCC2)c2ccccc21	-0.5%	6.2	21.1	-10.8	1.1	-3.7
O=C(CN(C(=O)CNC(=O)c1ccco1)c1ccc2c(c1)OCO2)NC1CCCCC1	0.3%	-2.2	38.7	-22.5	0.2	-6.5
O=C(NC1CCCCC1)C(c1ccccc1F)N(Cc1ccco1)C(=O)c1ccccn1 (configuration not stated)	1.3%	0.5	9.7	-6.1	-0.6	-1.1
O=C(Cn1cnc2c(nnn2-c2ccc(F)cc2)c1=O)N1CCCC1	8.0%[38.3 µM]	0.8	0.2	-5.6	1.5	0.5
O=C(N[C@H]1C/C=C\C[C@@H](CC(=O)N(CCO)Cc2ccccc2)C(=O)N2CCC[C@H]2COC1=O)OCC1c2ccccc2-c2ccccc21	1.9%	7.5	-14.0	.	0.2	-0.5
COc1ccccc1CNC(=O)c1ccc(SC)cc1OC	-0.4%[38.3 µM]	-0.3	-12.7	-6.1	1.2	-1.3
Following part
SMILES	PINK1 expr mod	Six1-Eya2 blk	TRPML1 blocker	D2 PAM	TRPML1 agonist	D2 ag
COc1ccccc1NC(=O)CSc1nnc(CCC(=O)Nc2ccccc2F)n1C	-0.4%	-1.9	3.2	-13.3	-0.3	-2.5
CC(C)c1nc(CNC(=O)C2CCC(=O)N(CCc3ccc(Cl)cc3)C2)no1 (configuration not stated)	-1.2%	4.8	14.6	-12.9	0.1	1.3
Cc1ccc(S(=O)(=O)n2cc(-c3ccccc3)c(N)n2)cc1	0.5%[38.3 µM]	16.6	-1.9	-7.8	1.4	-2.1
CCC(=O)Nc1ccc(NC(=O)CN2CCCC(C)C2)c(Cl)c1 (configuration not stated)	-1.3%	5.1	-15.1	-12.0	-0.3	-2.3
CN(C)S(=O)(=O)c1cccc(NC(=O)c2ccncc2)c1	-2.5%	5.4	0.3	-16.1	-0.4	-3.0
N#C/C(=C\c1cccs1)c1nc2ccccc2[nH]1	19.6%	0.1	-5.6	-29.8	0.7	-1.6
Oc1ccc(CN2CCCc3ccccc32)c2cccnc12	?	-93.3*	33.5	12.4	-1.6	1.2
COc1ccc2c(c1)CC/C(=C\C=C\c1ccccc1)C2=O	1.8%	-11.3	-9.4	?	0.5	3.3
Nc1nonc1C(=O)NCCNc1ncccc1[N+](=O)[O-]	1.3%	13.4	-2.0	2.0	1.0	-1.8
CC(=O)c1sc(N/N=C/c2cccc(O)c2)nc1C	5.2%	-24.8	27.4	3.6	-0.9	-3.5
C[C@H](CO)N1C[C@H](C)[C@@H](CN(C)Cc2cncnc2)Oc2cc(Br)ccc2S1(=O)=O	2.2%	5.5	0.9	-0.5	-0.2	-14.4

Bioassay records from PubChem.
